From PubChem BioAssay
Cruzain noTriton – inhibitors of Trypanosoma cruzi cruzain without detergent. P25779. purified cruzain, Z-FR-AMC fluorescence, no detergent. Potency, µM, without a hit: max response, negative = inhibition, usual class: inhibitors. 200,000 compounds, 2.3% hits; active = well fitted curve in the direction sought with a large enough effect; inconclusive = small, poorly fitted or top-dose-only effect, or another doubt; inactive = no such curve, though single readings can be large; an effect the other way counts as inactive or inconclusive;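 note: plate controls were enzyme without inhibitor for no effect and buffer without enzyme for full effect; nearly all actives have a fitted effect of over 40% in size; top concentration of the series not given in the record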
Target sequence (P25779 123-467 limits assumed): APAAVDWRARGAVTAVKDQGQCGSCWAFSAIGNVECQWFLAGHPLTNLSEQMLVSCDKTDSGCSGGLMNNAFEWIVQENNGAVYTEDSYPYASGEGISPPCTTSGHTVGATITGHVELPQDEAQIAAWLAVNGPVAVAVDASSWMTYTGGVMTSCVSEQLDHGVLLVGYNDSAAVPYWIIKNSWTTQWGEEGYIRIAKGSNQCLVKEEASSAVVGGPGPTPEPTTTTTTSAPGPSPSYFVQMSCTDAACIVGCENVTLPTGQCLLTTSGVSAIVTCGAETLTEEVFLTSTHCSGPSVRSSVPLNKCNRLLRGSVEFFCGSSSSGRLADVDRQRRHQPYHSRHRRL
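Detergent-free condition (0.00005% Triton X-100) in acetate buffer pH 5.5 with DTT. 1.5 nM enzyme and compound were pre-mixed 15 min, then 2 uM Z-FR-AMC substrate added; reaction progress from fluorescence change between first and third reads (60 s).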
NS1 function inh – inhibitors of influenza NS1 protein function; S. cerevisiae slowed by influenza A NS1, growth recovery by OD600; Potency, µM (doses to about 46.1 µM), inactives show at the top dose activity, positive = more growth; 270,000 compounds, 0.4% hits; AID 2326; note: actives are rising curves; nearly all actives have a fitted effect of over 50% in size
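S. cerevisiae expressing influenza A NS1, grown in glucose, washed, then diluted 1:100 into pH 6.0 -URA galactose medium with 23 nl compound. Growth recovery read as OD600; NS1-free strain serves as control.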
RE007 growth inh – less growth of the S. pombe RE007 Vpr strain; S. pombe RE007 Vpr strain, BacTiter-Glo ATP luminescence, 24 h; control for the full effect not named in the record; 360,000 compounds, 0.21% hits; Potency, µM (series often up to 92.2 µM), for the others: top-dose activity change, negative = less growth; active = well fitted falling curve with a large enough effect; inconclusive = small, poorly fitted or top-dose-only effect; inactive = no such curve, though single readings can be large or run the other way;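 note: % is set by controls: 0 for no effect and ±100 for the full control effect; nearly all actives have a fitted effect of over 50% in size; the assay follows cell death caused by Vpr and the record does not say whether a fall means rescue or toxicity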
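Fission yeast RE007 carrying one integrated HIV-1 vpr copy, seeded at OD 0.01 in PMG+AL medium with 23 nL pinned compound. Grown 24 h at 30 degrees; viability read by BacTiter-Glo luminescence after 5 min.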
StopGo reporter – lowers the luciferase signal of an FMDV 2A StopGo reporter; AID 1159524; human cells with a luciferase reporter of 2A StopGo recoding; control for the full effect not named in the record; 410,000 compounds, 1.2% hits; Potency, µM (titrated, usually from 57.9 µM), for the others: at the top dose signal change, negative = less light; active = well fitted falling curve with a large enough effect; inconclusive = small, poorly fitted or top-dose-only effect; inactive = no such curve, though single readings can be large or run the other way; tested in HEK293T cells; note: % is set by controls: 0 for no effect and ±100 for the full control effect; nearly all actives have a fitted effect of over 45% in size; luciferase light after 4 h
Cruzain inh Det – cruzain (T. cruzi) inhibition with detergent; 200,000 compounds, 0.43% hits; P25779; Potency, µM, without a hit: max response, negative = inhibition, usual class: inhibitors; purified cruzain, Z-FR-AMC fluorescence, 0.01% Triton; active = well fitted curve in the direction sought with a large enough effect; inconclusive = small, poorly fitted or top-dose-only effect, or another doubt; inactive = no such curve, though single readings can be large; an effect the other way counts as inactive or inconclusive;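 note: plate controls were neutral wells for no effect and buffer without enzyme for full effect; nearly all actives have a fitted effect of over 40% in size; top concentration of the series not given in the record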
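Cruzain (1.5 nM) preincubated 15 min at RT with compound in 100 mM sodium acetate pH 5.5, 5 mM DTT, 0.01% Triton X-100. Reaction started with 2 uM Z-FR-AMC; AMC fluorescence (ex 360/em 450 nm) change over 60 s gave rate.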
SARS PLpro yeast – blocks SARS-CoV papain-like protease in a yeast assay; S. cerevisiae expressing SARS-CoV PLpro, growth rescue; control for the full effect not named in the record; Potency, µM (top dose mostly 32.9 µM), inactives show at the highest dose activity, positive = growth rescue; 330,000 compounds, 0.19% hits; AID 485353; note: 0% is about no effect; nearly all actives have a fitted effect of over 55% in size; growth read by luminescence after 48 h
MARV entry inh – blocks Marburg virus binding to or entry into cells | 300,000 compounds, 1.8% hits | Marburg virus pseudotyped entry inhibition, cell reporter; control for the full effect not named in the record; about a third of the inactives were read at about 46 µM | Potency, µM (series often up to 37.8 µM), for the others: top-dose activity change, negative = inhibition, hits mostly inhibitors | AID 540276; active = well fitted inhibition curve with a large enough effect; inconclusive = small, poorly fitted or top-dose-only effect, or effect the other way; inactive = flat fitted curve, though single readings scatter; tested in HEK293 cells; about a fifth of its hits are not listed in these tables; note: % is set by controls: 0 for no effect and ±100 for the full control effect; luciferase read-out
Lassa entry inh – blocks Lassa virus binding to or entry into cells; Lassa virus pseudotype entry inhibition, cell reporter; control for the full effect not named in the record; Potency, µM (doses to about 37.9 µM), inactives show at the top dose activity change, negative = inhibition, actives largely listed as inhibitors; 300,000 compounds, 1.2% hits; active means well fitted inhibition curve with a large enough effect; inconclusive means small, poorly fitted or top-dose-only effect, or effect the other way; inactive means flat fitted curve, though single readings scatter; tested in HEK293 cells; note: % is set by controls: 0 for no effect and ±100 for the full control effect; nearly all actives have a fitted effect of over 50% in size; luciferase read-out
The depositor's hits bear a star; u = inconclusive; x = no result given; & = joins results of further samples; ! = not active in a repeat; [ ] = remark or other dose. Unless noted, calls come from the whole dose curve; as a rule, active means well fitted rising curve with a large enough effect; inconclusive means small, poorly fitted or top-dose-only effect; inactive means no such curve, though single readings can be large or run the other way. Potency is the fitted concentration of half-maximal effect.

Fields – Cruzain noTriton	NS1 function inh	RE007 growth inh	StopGo reporter	Cruzain inh Det	SARS PLpro yeast	MARV entry inh	Lassa entry inh
> O=S(=O)(NC1CCCCC1N1CCC(O)CC1)c1ccccc1 (stereo not drawn)
→ x	-1%	-6%	13%	x	0%	-10%	24%
> COc1ccc(NC(=O)c2ccc3c(c2)N(C)CCS3)cc1
→ x	-4%	-4%	49%[activator]	x	-1%	x	x
> COC(=O)c1sccc1N/N=C/c1cccc(OC)c1O
→ -20%	7%	x	-53%	-3.2%	-37%	u	u
> COc1ccc(NC(=O)C(CCSC)N2C(=O)c3ccccc3C2=O)cc1 (stereo not drawn)
→ 8%	-15%	1%	3%	-1.8%	6%	u	-2%
> COc1ccc(-c2csc3nc(-c4cccnc4)nc(Cl)c23)cc1OC
→ -13%	2%	56%	u	13µM*	-20%	u	u
> Cc1oc(-c2ccccc2F)nc1CS(=O)(=O)CC(=O)NC(C)CCc1ccccc1 (stereo not drawn)
→ x	0%	9%	-22%	x	-15%	x	x
> Cc1ccc2c(c1)C(=O)N(CCCCO)C2=O
→ -10%	1%	28%	10%	-3.3%	13%	14%	-9%
> CC(C)(C)c1ccc(C(=O)NC(Cc2c[nH]c3ccccc23)C(=O)OCC(=O)c2ccccc2)cc1 (stereo not drawn)
→ u	x	x	24%	-8.8%	x	x	u
> CCc1sc(Nc2ccc(C)cc2Br)nc1-c1cc2cccc(OC)c2oc1=O
→ -8%	x	x	-10%	1.3%	x	x	u
> O=C(Cn1nnc2ccccc21)NCc1ccccc1
→ -5%	4%	-18%	-5%	5.8%	3%	u	u
> O=C1CCC(=O)N1c1cccc(OS(=O)(=O)c2ccccc2)c1
→ 1%	7%	2%	-16%	2.0%	14%	u	24%
> CCC1CN(C(=O)N2CCC(C(=O)NCCN(C)C)CC2)c2ccccc2O1 (stereo not drawn)
→ 0%	x	x	-3%	-4.5%	x	x	-1%[46.1 µM]
> Cc1cccc(OCCNC(=O)c2cccc(Oc3ccc(C(F)(F)F)cc3[N+](=O)[O-])c2)c1
→ 13%	12%	-10%	u	-6.5%	4%	u	-14%
> CCOc1ccccc1NC(=O)C(OC(=O)C1CC1)c1ccccc1 (stereo not drawn)
→ x	-66%	3%	-18%	x	1%	0%[46.1 µM]	3%
> CC(=O)NC1CC2CCCC(C1)N2C(=O)Nc1cccc(Cl)c1 (stereo not drawn)
→ x	x	3%	-3%	x	x	8%[46.1 µM]	1%[46.1 µM]
> COCc1cc(OC(=O)N(C)C)nc(-c2ccccc2)n1
→ x	-1%	-3%	-9%	x	1%	u	-7%
> Cc1cccc(N2CCCC2=Nc2ccc(Br)cc2C#N)c1
→ -10%	-2%	3%	x	-1.3%	0%	12%	-28%
> CCOC(=O)c1nn(-c2ccc(C)cc2)cc1O
→ 1%	-2%	-25%	2%	-0.8%	1%	u	u
> CS(=O)(=O)N1CCN=C1SCc1ccc([N+](=O)[O-])cc1
→ x	x	-1%	-7%	x	0%	u	3%
> CC1(C)CC(=O)c2c(nn(-c3ccccc3)c2-c2ccncc2)C1
→ -14%	-4%	4%	-17%	-0.2%	2%	u	-6%
> COc1ccc2nc(NC(=O)C3CCN(S(=O)(=O)c4cccc5nsnc45)CC3)sc2c1
→ u	u	-10%	7.9µM*	-8.8%	4%	u	4.6µM*
> Cc1cc(-c2ccc(C)c(S(=O)(=O)Nc3ccc(S(N)(=O)=O)cc3)c2)on1
→ x	-1%	10%	0%	x	u	x	x
> CCn1c(SCC(N)=O)nnc1-c1ccc2c(c1)OCO2
→ x	x	5%	1%	x	5%	11%[46.1 µM]	7%[46.1 µM]
> CCO[C@@H]1OC(C(=O)N2CCN(Cc3ccccc3)CC2)=C[C@H](C2CC2)[C@H]1CCCO
→ x	0%	-7%	-28%	x	0%	x	x
> COc1cc(OC)c(N(C)S(=O)(=O)c2cccc(C(=O)OCC(=O)N(C)C3CCCCC3)c2)cc1Cl
→ x	x	2%	-25%	x	x	u	u
> O=C(c1ccco1)N1CCN(C(=O)c2cc3sccc3n2Cc2ccccc2)CC1
→ 25%	-1%	6%	-28%	-4.5%	10%	-6%	u
> Cc1onc(-c2ccccc2)c1C(=O)NNC(=S)NC(=O)/C=C/c1ccccc1
→ 5%	u	9%	-18%	9.2%	-12%	u	-29%
> Cc1cc(C)c2cc(CN(CCO)C(c3nnnn3Cc3ccc(F)cc3)C(C)C)c(=O)[nH]c2c1 (stereo not drawn)
→ u	1%	x	x	-4.5%	0%	x	x
> O=C(OCCN1CCOCC1)c1ccc(O)cc1
→ x	20%	-30%	14%	x	4%	x	x
> N/C(CC1CC1(Cl)Cl)=N\OC(=O)c1ccccc1 (stereo not drawn)
→ x	-46%	-16%	28%	x	-6%	0%[14.2 µM]	17%

Ordered by molecular weight (low to high): some entries from above
Fields – Cruzain noTriton	NS1 function inh	RE007 growth inh	StopGo reporter	Cruzain inh Det	SARS PLpro yeast	MARV entry inh	Lassa entry inh
> Cc1ccc2c(c1)C(=O)N(CCCCO)C2=O
→ -10%	1%	28%	10%	-3.3%	13%	14%	-9%
> O=C1CCC(=O)N1c1cccc(OS(=O)(=O)c2ccccc2)c1
→ 1%	7%	2%	-16%	2.0%	14%	u	24%
> Cc1oc(-c2ccccc2F)nc1CS(=O)(=O)CC(=O)NC(C)CCc1ccccc1 (stereo not drawn)
→ x	0%	9%	-22%	x	-15%	x	x

Further results.
Fields – Cruzain noTriton	NS1 function inh	RE007 growth inh	StopGo reporter	Cruzain inh Det	SARS PLpro yeast	MARV entry inh	Lassa entry inh
> COc1ccc2nc(Cl)c(/C=N/Nc3ccccn3)cc2c1
→ x	2%	6%	-6%	x	-2%	15%[46.1 µM]	1%
> N#CC1=C(N)S[C@H](C(=O)C23CC4CC(CC(C4)C2)C3)[C@H]1c1ccncc1
→ -7%	-47%	-10%	u	-0.2%	-6%	u	u
> CCn1cc(CN2CCCC(C(=O)c3cccc(OC)c3)C2)c(C)n1 (stereo not drawn)
→ x	3%	-3%	-17%	x	0%	u	-8%[46.1 µM]
> CNC(=O)/C(C#N)=C/c1c(N2CCCCCC2)nc2c(C)cccn2c1=O
→ x	-11%	6%	-11%	x	1%	x	x
> COc1ccc(-c2cn3c(n2)sc2cc(C(=O)NCCc4ccc(OC)cc4OC)ccc23)cc1
→ -8%	x	x	-12%	-0.6%	x	x	5%[46.1 µM]
> CCN1CCN(C(=O)/C=C/c2ccc(C)o2)CC1
→ -3%	-6%	-29%	-20%	0.2%	-12%	-4%	6%
> CC(C)n1ncc2c(C(=O)NCCc3ccc(F)cc3)cc(C3CC3)nc21
→ x	x	16%	u	x	2%	-11%	u
> CC(=O)c1ccc(N(CC(=O)NCc2ccc3c(c2)OCO3)C(=O)c2csnn2)cc1
→ x	3%	20%	10%	x	1%	2%[46.1 µM]	u
> CCn1c(CNC(=O)c2cccc(C)c2)nnc1SCC(=O)Nc1cccc(OC)c1
→ 10%	-6%	0%	10%	0.2%	1%	20%	-33%[14.3 µM]
> CCOC(=O)C(=O)N1c2ccccc2C(N(C(=O)C(=O)OCC)c2ccccc2)CC1C (stereo not drawn)
→ x	-6%	-1%	-15%	x	0%	u	-26%[46.1 µM]
> CCSc1nc(N)c(NC(=O)c2ccc(Br)o2)c(=O)[nH]1
→ x	-10%	-27%	3%	x	2%	u	u
> COc1ccc(NC(=O)/C=C/c2ccccc2)c([N+](=O)[O-])c1
→ 7%	0%	24%	31%[activator]	-0.4%	17%	u	8%
> Cc1ccc(-c2nnc(Nc3cccc(Cl)c3)c3ccccc23)cc1S(=O)(=O)N1CCN(C)CC1
→ 1%	x	x	-15%	-6.6%	x	u	12%[46.1 µM]
> N#Cc1cccc(C(=O)OCC(=O)NCc2ccco2)c1
→ x	15%	11%	-12%	x	u	0%[46.1 µM]	u
> O=C(COc1ccc(C(=O)NCCc2ccccc2)cc1)Nc1ccccc1
→ -28%	-5%	2%	3%	-1.3%	6%	0%	1%
> COc1ccc2c(c1OC)C(=O)N1N=C(c3ccc(Cl)cc3)CC21 (stereo not drawn)
→ -4%	-17%	-1%	-5%	-1.3%	-17%	-4%	12%
> Cc1ccc(-n2c(-c3ccco3)nc3c(cnn3-c3ccc(C)cc3)c2=O)cc1
→ 3%&-4%	5%	6%	28µM*!	-1.6%&-3.1%	-6%	u	u
> CCCCC(=O)Nc1ccc2c3c(cccc13)C(=O)N2CC
→ -2%	-10%	1%	-18%	4.9%	-4%	0%	9%
> O=C(CSc1nnc(-c2ccccn2)o1)Nc1ccccc1Cl
→ x	11%	-2%	60%[activator]	x	0%	x	x
> COC(=O)c1cccc(C23CC4(C2)[C@H](CN(CC2CCCCC2)[C@@H]4c2ccccc2)C3c2ccccc2)c1 (stereo partly drawn)
→ -16%	10%	4%	16%	12%	-4%	x	x
> NC(=O)C1CCN(CCC(=O)Nc2cccc(Cl)c2)CC1
→ -11%	0%	0%	6%	-2.8%	4%	28%[46.1 µM]	19%
> O=C(COC(=O)CNC(=O)c1ccccc1)NCc1ccc2c(c1)OCO2
→ x	x	-20%	-10%	x	-5%	-7%	-9%
> COc1ccc(CCNC(=O)CCCOc2ccc(Cl)cc2)cc1OC
→ x	-40%	3%	u	x	-1%	-25%	u
> O=C(O)CSc1ccnc2cc(Cl)ccc12
→ x	8%	3%	-12%	x	0%	5%[46.1 µM]	13%
> O=C(Nc1ccccc1)Nc1scc2c1c(=O)oc1ccccc12
→ x	0%	-10%	58%[activator]	x	2%	x	x
> CC(O)CN1C(=O)C(CC(=O)Nc2ccc(Cl)cc2)SC1=Nc1ccccc1 (stereo not drawn)
→ u	-35%	u	u	-4.7%	-12%	u	u
